From PubChem
MgrA-DNA mod: S. aureus MgrA activity modulators, primary screen, biochemical, S. aureus Newman, fluorescence polarization; AID 602314, 2012; 0.13% of 84,000 active; inhibition, %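 (about 10 µg/mL by stock and volumes)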; MgrA-DNA binding;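 active = above 50% in either of two replicates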;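 also: 0% = protein plus DNA without compound and 100% = DNA alone without protein; higher means less MgrA bound to DNA so lower polarization; one replicate is shown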
S aureus helic: inhibitors of S. aureus replicative helicase, primary screen, biochemical, fluorescence unwinding readout | replicative DNA helicase (DnaC/DnaB), Staphylococcus aureus | purified S. aureus helicase, fluorescence unwinding assay; about half of the hits fall short of the stated cut | inhibition, %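 (tested at about 80 µM)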 | 0.05% of 120,000 active | AID 485395, 2010;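 active = both duplicates at 50% or more, or one of them with a favoured structure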;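 also: 0% = mean of negative control wells and 100% = mean of positive control wells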
Active calls of the source: *; nt = not tested or not shown; & = joins results of further samples. This is a subset; rates above refer to the full screens.

The first 6 compounds as a preview:
SMILES | MgrA-DNA mod | S aureus helic
COc1ccc(-c2nnc(SCC(=O)c3ccccc3)n2C)cc1OC | nt | -17.0
COc1ccc(Cl)cc1C(=O)Nc1nnc(SCC(=O)c2ccccc2)s1 | nt | 8.0
NC(Cc1ccccc1)C(O)(c1ccccc1)c1ccccc1 (stereo unspecified) | 0.2 | 0.0
CC(C)Cn1c(Sc2ncnc3sccc23)nc2ccccc2c1=O | nt | -9.0
CCc1ccc2[nH]c(=O)c(C(c3nnnn3C(C)(C)C)N3CCN(C(=O)c4ccco4)CC3)cc2c1 (stereo unspecified) | -0.5 | 11.0
O=c1/c(=C/c2cccs2)sc2ncnn12 | 1.0 | 5.0

Results (from the top)
SMILES | MgrA-DNA mod | S aureus helic
COc1ccc(-c2nnc(SCC(=O)c3ccccc3)n2C)cc1OC | nt | -17.0
COc1ccc(Cl)cc1C(=O)Nc1nnc(SCC(=O)c2ccccc2)s1 | nt | 8.0
NC(Cc1ccccc1)C(O)(c1ccccc1)c1ccccc1 (stereo unspecified) | 0.2 | 0.0
CC(C)Cn1c(Sc2ncnc3sccc23)nc2ccccc2c1=O | nt | -9.0
CCc1ccc2[nH]c(=O)c(C(c3nnnn3C(C)(C)C)N3CCN(C(=O)c4ccco4)CC3)cc2c1 (stereo unspecified) | -0.5 | 11.0
O=c1/c(=C/c2cccs2)sc2ncnn12 | 1.0 | 5.0
Cn1c(=NC(=O)c2ccc(S(=O)(=O)N3CCCCC3)cc2)sc2c3ccccc3ccc21 | 0.9 | 5.0
CCOC(=O)c1c(-c2ccccc2)oc2ccc(O)c(CN3CCCC3)c12 | nt | 13.0
O=C(c1ccccc1)N1CCCc2ccccc21 | 0.4 | nt
N/C(=N/OC(=O)c1ccccc1F)c1nonc1N | nt | -21.0
Cc1cccc(C(=O)OCC(=O)NC2CCS(=O)(=O)C2)c1C (stereo unspecified) | nt | -24.0
COc1cccc(NC(=O)Cn2c(=O)oc3cc(S(=O)(=O)N4CCCCC4C)ccc32)c1 (stereo unspecified) | nt | 1.0
O=C(C1CC1)N(Cc1ccccn1)c1nc2ccccc2s1 | nt | 4.0
CCOc1ccccc1NC(=O)CN1C(=O)c2cccc3cccc1c23 | nt | 0.0
COc1ccccc1N1C(=O)S/C(=C\c2ccccc2)C1=O | 2.6 | 2.0
O=C(c1ccc(N2CCOCC2)cc1)c1cccs1 | 1.5 | 0.0
COc1ccc(-c2cc3nc(C)c(CCC(=O)NC(C)c4cccs4)c(C)n3n2)c(OC)c1 (stereo unspecified) | -0.2 | 13.0
Cc1ccc(CN(C)S(=O)(=O)c2ccc(Cl)cc2C(F)(F)F)o1 | nt | -5.0
CN(C)C(=S)SCC(=O)c1ccc(Cl)cc1 | -0.3 | nt
O=C(CC1Nc2ccccc2NC1=O)Nc1ccc(O)cc1 (stereo unspecified) | nt | 15.0
Cc1cc(C)nc(NNC2=CC(=O)CC(C)(C)C2)n1 | nt | 18.0
CC(C)OC(=O)CN1C(=O)c2ccc(C(=O)OC(C)C)cc2C1=O | 4.6 | -3.0
CN1CCC(N(C)C(=O)CSc2ccc3ccccc3c2)CC1 | 1.9 | -27.0
O=C(CSc1nnc(-c2ccco2)o1)N1N=C2/C(=C/c3ccco3)CCCC2C1c1ccco1 (stereo unspecified) | nt | 8.0
CCOC(=O)c1c(C)[nH]c(C(=O)OCc2cccc(OC)c2)c1C | nt | 12.0
O=C(CSCCOc1ccccc1)N1CCOCC1 | nt | -6.0
Cc1ccc(NC(=O)CN2CCN(CCNS(=O)(=O)c3ccc(C)cc3)CC2)cc1 | nt | 11.0
CN(C)c1ccc(/C=C(\C#N)C(N)=C(C#N)C#N)cc1 | 29.1 | -68.0
COC(=O)c1cc(=O)n2c(-c3ccccc3)nnc2s1 | -1.1 | nt
COc1cc2c(cc1OC)CN(C(=O)CSc1nc(C)cc(C)c1C#N)CC2 | 14.6 | 0.0
CC(C)OC(=O)c1cc2ccccc2c(=O)s1 | nt | -5.0
COc1ccc(Br)cc1/C=C1/N=C(c2cc(Cl)ccc2OC)OC1=O | 0.0 | nt
COc1ccc(N2CN(S(=O)(=O)c3ccc(NC(C)=O)cc3)c3nc4ccccc4nc32)cc1 | nt | -15.0
COC(=O)CN(C#N)c1nc(C)cc(C)n1 | 3.1 | 2.0
CC1CN=C(N(C(=O)Nc2cccc(Cl)c2)C2CCCCC2)S1 (stereo unspecified) | 0.7 | nt
CCCCCc1ccc(C(=O)NN)cc1 | -1.6 | nt
CC(=O)Nc1ccc(N2S(=O)(=O)c3ccccc3S2(=O)=O)cc1 | -2.5 | 12.0
CC1(C)OC(=O)C(=Cc2ccccc2F)C(=O)O1 | 20.7 | 11.0
O=C(O)c1ccccc1NCc1ccccn1 | 3.4 | -3.0
Cc1cc(CN2CC(C)CC(C)C2)cc(C)c1O (stereo unspecified) | -2.5 | nt
CCCCn1c(=O)n(CC(=O)NC2CCCCC2C)c(=O)c2c1ncn2CCC(C)C (stereo unspecified) | nt | 13.0
Brc1ccc(-c2ccon2)s1 | -0.4 | nt
COc1ccc(OCC(=O)Nc2ccc(-c3nc4ncccc4o3)cc2)cc1 | -2.6 | 0.0
CCC(=O)Nc1cccc(-c2nc3ccccc3o2)c1C | 4.5 | 2.0
O=C(OCc1ccc2c(c1)OCO2)c1ccccc1Br | 0.0 | -23.0
O=C(Cn1nnc(-c2ccccc2)n1)NCCC1=CCCCC1 | -5.2 | 4.0
C=CCOc1c(Br)cc(Br)c2cccnc12 | 1.1 | -17.0
O=C(OCC(=O)N(Cc1ccco1)C12CC3CC(CC(C3)C1)C2)c1cnccn1 | nt | 2.0
O=C(NCc1ccccc1)c1cc2ccccc2[nH]1 | nt | 10.0
CCc1ccc(NC2SC(=O)N(c3ccccc3)C2=O)cc1 (stereo unspecified) | 1.9 | 6.0
COc1ccc(OC)c(C2=NOC(C(=O)N3C(C)CCCC3C)C2)c1 (stereo unspecified) | nt | -13.0
Cc1ccn2cc(-c3cccc(NS(=O)(=O)c4cc(C)c(C)cc4C)c3)nc2c1 | -5.0 | 10.0
O=S(=O)(NCC1CCCO1)c1ccc2oc3ccc(S(=O)(=O)NCC4CCCO4)cc3c2c1 (stereo unspecified) | 3.6 | 5.0
Cc1nc(C(F)(F)F)nc(N2CCCCC2)c1Oc1ccccc1 | nt | -8.0
COc1cccc(C2=NOC(C(=O)N3CCCC3)C2)c1 (stereo unspecified) | nt | 8.0
O=C(CSC(=O)c1sc2ccccc2c1Cl)Nc1ccc(Cl)cc1 | -2.0 | nt
O=C(Cc1ccccc1)Nn1c(SCC(=O)c2ccccc2)nc2ccccc2c1=O | 0.5 | 2.0
Cc1cc(-c2ccccc2)nc2cc(C(=O)N3C(C)CCCC3C)nn12 (stereo unspecified) | -0.8 | -2.0
O=C(NC1CCCCC1)c1ccc2c(Cl)c3c(nc2c1)CCCC3 | -0.5 | 16.0
N#CCN(CC#N)C(=O)Cc1cccs1 | 7.8 | -13.0

Two entries picked at random from the list so far:
SMILES | MgrA-DNA mod | S aureus helic
C=CCOc1c(Br)cc(Br)c2cccnc12 | 1.1 | -17.0
Cc1cc(-c2ccccc2)nc2cc(C(=O)N3C(C)CCCC3C)nn12 (stereo unspecified) | -0.8 | -2.0

The list continues.
SMILES | MgrA-DNA mod | S aureus helic
CCn1nc(Nc2ccc(C)cc2)c(Cl)c1Nc1ccc(C)cc1 | nt | -15.0
CN1CCN(c2ccc(CNC(=O)c3ccno3)cc2)CC1 | -0.3 | nt
O=S1(=O)CCN2C(=N1)Oc1ccc(Cl)cc12 | nt | 30.0
CC(=O)N1C(=O)/C(=C\c2cccnc2)NC1=S | -0.2 | 10.0
Cc1ccc(CN(C)C(=O)c2n[nH]c3ccccc23)o1 | nt | -4.0
O=C(Cn1cccc1)NCCc1ccccc1 | nt | 15.0
O/N=C(\c1ccccc1)C1CC2CCC1CC2 (stereo unspecified) | 3.6 | nt
CN(CCC#N)C(=S)Nc1ccc(F)cc1 | -3.2 | nt
CSc1scc(Cl)c1S(=O)(=O)C(C)C | 1.6 | nt
CCc1ccc(OCCNc2nc(C)c(Br)c(=O)[nH]2)cc1 | -3.7 | 10.0
CCC(=O)c1ccc(-c2ccccc2)cc1 | -0.7 | nt
O=C(O)C1CCCN1S(=O)(=O)c1ccccc1C(F)(F)F (stereo unspecified) | nt | 5.0
CC(C)N1CCC(=NNc2cccc(C(=O)O)c2)CC1 | nt | -2.0
CC(C)CC(=O)Nc1ccc(C(=O)Nc2ccc(O)cc2)cc1 | 0.0 | 1.0
C1CCc2sc(NCC3CCCO3)nc2C1 (stereo unspecified) | nt | -2.0
O=c1c2ccccc2c(C=Nc2cccc(O)c2)c(O)n1-c1cc(Cl)ccc1N1CCOCC1 | nt | 19.0
NC(=O)CSc1nc2ccc(Cl)cc2s1 | 0.4 | nt
CC(C)N(C(=O)CSc1ncnc2ccccc12)c1ccccc1 | -1.6 | 6.0
Oc1ccc(Nc2nc(-c3ccc(O)cc3)cs2)cc1 | 2.7 | 0.0
CCn1c(=O)cc(OCC(=O)NCc2ccc(C)cc2)c2ccccc21 | nt | -6.0

Single records, as listed above.
CN1CCN(c2ccc(CNC(=O)c3ccno3)cc2)CC1 across the screens: MgrA-DNA mod: -0.3; S aureus helic: nt
O=c1c2ccccc2c(C=Nc2cccc(O)c2)c(O)n1-c1cc(Cl)ccc1N1CCOCC1 across the screens: MgrA-DNA mod: nt; S aureus helic: 19.0
O/N=C(\c1ccccc1)C1CC2CCC1CC2 (stereo unspecified) across the screens: MgrA-DNA mod: 3.6; S aureus helic: nt

Carrying on:
SMILES | MgrA-DNA mod | S aureus helic
CC(C)Cn1c(SCC(=O)c2ccc[nH]2)nnc1-c1ccco1 | nt | 3.0
CN(C)S(=O)(=O)Nc1ccc(Oc2ccccc2)cc1 | 0.2 | 8.0
CC1Cc2ccccc2N1S(=O)(=O)c1ccc2c(c1)n(C)c(=O)c(=O)n2C (stereo unspecified) | 0.1 | 6.0
COc1ccccc1-n1nnc(C(=O)Nc2nccs2)c1C | 1.3 | -3.0
CCN1CCN(C(=O)N[C@@H](C(=O)N[C@@H]2C(=O)N3C(C(=O)O)=C(CSc4nnnn4C)CS[C@H]23)c2ccc(O)cc2)C(=O)C1=O | 4.9 | nt
O=C(Cc1ccc(Cl)cc1)N1CCOCC1 | 3.2 | 13.0
COCCCn1c(=O)cc(C)[nH]c1=S | nt | -18.0
c1ccc2c(c1)nc(NCc1ccncc1)n2CCN1CCCCC1 | nt | 12.0
CCCc1cc(=O)n(-c2ccc(C(=O)O)cc2)[nH]1 | -5.3 | 9.0
Cc1ccccc1NC(=O)c1ccccc1 | -2.1 | nt
Cc1nc(-c2nnc(-c3ccc(C(F)(F)F)cc3)o2)cs1 | -2.1 | nt
CCS(=O)(=O)c1ccc(NC(=O)c2ccccc2)c(O)c1 | 1.8 | 3.0
CCOc1ccc(Br)cc1S(=O)(=O)n1cnc2ccccc21 | -0.8 | 16.0
CCN(CC)C(=O)c1sc(NC(=O)c2cc(-c3ccc(Br)cc3)nc3ccccc23)c(C#N)c1C | -2.2 | nt
C=CCOC(=O)C1=C(C)Nc2[nH]c(=O)[nH]c(=O)c2C1c1ccc(O)cc1 (stereo unspecified) | 1.4 | 9.0
CCOC(=O)c1c(SC)[nH]c2c(C(F)(F)F)cccc2c1=O | -2.0 | nt
C=CCn1c(CCNC(=O)c2cccs2)nnc1SCC(=O)Nc1cccc(F)c1 | 0.1 | 23.0
O=C1CSC(c2ccccc2)N1c1ccc(Cl)cc1 (stereo unspecified) | -1.4 | nt
COc1cccc2sc(NN)nc12 | nt | 26.0
Nc1cc(C(=O)c2ccccc2)ccc1N1CCOCC1 | 1.6 | 14.0
CC(=O)N1C(=O)c2ccccc2C1=O | -0.9 | nt
CC1CCCC(C)N1Cn1nc(-c2ccccc2)n(-c2ccccc2)c1=S (stereo unspecified) | nt | -3.0
CCC(=O)N1CCN(CCN=CC2=C(O)CC(c3ccccc3)CC2=O)CC1 (stereo unspecified) | nt | 25.0
O=C(CNS(=O)(=O)/C=C/c1ccccc1)OC1CCOC1=O (stereo unspecified) | nt | 17.0
N#Cc1c(-c2ccccc2)cc(-c2cccs2)nc1SCS(=O)Cc1ccccc1 (stereo unspecified) | 2.0 | 13.0
NNC(=O)CO/N=C/c1ccc(Cl)cc1Cl | nt | -14.0
CC1=NN(C2=NS(=O)(=O)c3ccccc32)C(C)(O)C1 (stereo unspecified) | -0.1 | -2.0
CC(=O)O/N=C/c1ccc(N(C)C)cc1 | -4.6 | nt
Cc1ccc(S(=O)(=O)CCC(=O)OCc2nnc(-c3ccccc3Br)o2)cc1 | nt | -10.0
Cc1noc(C)c1COC(=O)c1cccnc1SCC(=O)Nc1ccc2c(c1)OCO2 | nt | -7.0
Cc1nc(C(F)(F)F)c(C(N)=O)s1 | 1.5 | nt
OC1CCN(Cc2ccc(F)cc2)CC1 | 1.5 | -8.0
CC1CC(C)CN(C(=O)c2ccc(NC(=O)c3ccc(=O)[nH]c3)cc2)C1 (stereo unspecified) | 1.2 | 4.0
C=CCON1C(=O)CN(C(=O)Nc2ccccc2)C1c1ccccc1 (stereo unspecified) | 0.8 | 9.0
Cc1c(O)ccc2c(-c3ccccc3)cc(=O)oc12 | nt | 14.0&20.0
Cc1ccc(-c2c[n+](-c3c4n(n(-c5ccccc5)c3=O)CCCCC4)c(C)n2C)cc1 | -2.7 | 7.0
COc1ccc(-n2c(=O)c3ccccc3n(CC(=O)NC3CCCC3)c2=O)cc1 | nt | -30.0
O=C(Cn1nnc(-c2ccc(F)cc2)n1)NCCN1C(=O)CSC1=O | nt | 15.0
CCc1ccc(NC(=O)CSC2=NN3CCCC(=O)N=C3S2)cc1 | 0.2 | 7.0
Cc1cc(C(=O)CSc2ccccn2)c(C)n1Cc1cccs1 | nt | -17.0
O=C(NCCN1CCN(c2cccc(Cl)c2)CC1)Nc1ccc(Cl)cc1 | 1.2 | -16.0
CC1CCN(c2cc(N3CCC(C)CC3)c([N+](=O)[O-])cc2/C=c2/sc3nc4ccccc4n3c2=O)CC1 | -0.1 | nt
